Screening data from PubChem BioAssay.
LYPLA1 inh: counter-screen for PME1 inhibitors: inhibitors of human LYPLA1; recombinant LYPLA1, FP-Rh probe fluorescence polarization; 320,000 compounds, 0.16% hits; O75608; inhibition, % at 5.9 µM;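 active means inhibition above the mean of all tested compounds plus 3 SD, set per campaign, cut at about 14% in these data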;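 further: inhibitors block serine hydrolase probe labeling of LYPLA1 so polarization falls; 0% = enzyme with DMSO and 100% = wells lacking LYPLA1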
Target sequence (O75608 whole entry, looked up): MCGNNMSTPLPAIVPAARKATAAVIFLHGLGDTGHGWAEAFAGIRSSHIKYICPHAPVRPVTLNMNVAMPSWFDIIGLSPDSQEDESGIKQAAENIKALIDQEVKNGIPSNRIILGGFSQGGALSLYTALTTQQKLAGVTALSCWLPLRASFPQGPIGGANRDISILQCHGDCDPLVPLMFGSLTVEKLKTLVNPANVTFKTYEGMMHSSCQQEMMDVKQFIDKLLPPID
PAFAH1B3 FP inh: blocks human PAF acetylhydrolase 1B catalytic subunit 3; 340,000 compounds, 0.28% hits; recombinant PAFAH1B3, FP-rhodamine probe, fluorescence polarization; inhibition, % at 3.39 µM; Q15102; AID 492972;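 active means inhibition above the screen-wide average of all tested compounds plus 3 SD, cut at about 25% in these data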;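 further: 0% = enzyme with DMSO only and 100% = wells lacking PAFAH1B3 protein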
Target sequence (Q15102 whole entry, looked up): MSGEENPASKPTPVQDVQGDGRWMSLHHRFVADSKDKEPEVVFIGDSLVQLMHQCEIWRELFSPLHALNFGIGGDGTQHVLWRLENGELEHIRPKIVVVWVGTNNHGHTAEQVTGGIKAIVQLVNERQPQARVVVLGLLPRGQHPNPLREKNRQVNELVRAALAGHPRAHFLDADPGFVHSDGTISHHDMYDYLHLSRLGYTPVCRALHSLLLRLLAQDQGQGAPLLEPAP
PAD4 inh: PAD4 (human) enzyme inhibition; Q9UM07; recombinant PAD4, RCA probe fluorescence polarization; inhibition, % at 6.36 µM; 330,000 compounds, 0.41% hits;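 active means percent inhibition above a cutoff equal to the mean of all tested compounds plus 3 SD, cut at about 15% in these data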;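 further: 0% = PAD4 with RCA probe and DMSO and 100% = probe without PAD4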
LYPLA2 inh: blocks human lysophospholipase 2, a PME1 counter-screen; O95372; recombinant LYPLA2, FP-Rh probe fluorescence polarization; inhibition, % at 5.9 µM; 320,000 compounds, 0.38% hits; AID 2177;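 active means inhibition above the screen-wide mean plus 3 SD, limit set per campaign, cut at about 26% in these data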;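 further: 0% = LYPLA2 with DMSO and 100% = wells lacking LYPLA2 enzyme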
Target sequence (O95372 whole entry, looked up): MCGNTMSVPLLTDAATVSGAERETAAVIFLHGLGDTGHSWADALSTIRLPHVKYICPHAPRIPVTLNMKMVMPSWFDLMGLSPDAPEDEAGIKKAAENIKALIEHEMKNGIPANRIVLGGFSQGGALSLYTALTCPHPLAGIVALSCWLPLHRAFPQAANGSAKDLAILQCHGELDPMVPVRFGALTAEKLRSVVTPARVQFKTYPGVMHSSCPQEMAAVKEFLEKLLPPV
Active calls of the source: *; / = no result given.

[1] O=c1cc(O)nc(SCc2ccccc2Cl)[nH]1
[2] CCOC(=O)CNC(=O)CSc1nnc(COc2ccc(Cl)cc2)n1CC
[3] O=C(CCNC(=O)C1CCN(S(=O)(=O)c2ccc(F)cc2)CC1)NCc1ccccc1Cl
[4] CC1(C)Cc2ccccc2C(/C(=N/O)C(N)=O)=N1
[5] COc1ccccc1N1C(=O)C2C(C(=O)c3ccccc3)=NN(c3ccc(C)cc3)C2C1=O (centres undefined)

| Compound | 1 | 2 | 3 | 4 | 5 |
| --- | --- | --- | --- | --- | --- |
| LYPLA1 inh | 3 | -1 | 1 | -1 | -5 |
| PAFAH1B3 FP inh | 6 | -4 | 8 | 15 | / |
| PAD4 inh | -3 | 3 | 7 | 0 | 5 |
| LYPLA2 inh | 9 | -3 | 15 | 2 | -8 |

Results in LYPLA2 inh, for some of the entries so far:
#	Structure	LYPLA2 inh
4	CC1(C)Cc2ccccc2C(/C(=N/O)C(N)=O)=N1	2
1	O=c1cc(O)nc(SCc2ccccc2Cl)[nH]1	9

(cont.)
[6] Nc1ccc(C(=O)OC2CCOC2=O)cc1[N+](=O)[O-] (centres undefined)
[7] COC(=O)/C(NC(C)=O)=C(\C)c1ccc(Cl)cc1
[8] COc1cccc(CNC(=O)CCNC(=O)C2CCN(S(=O)(=O)c3ccc(F)cc3)CC2)c1
[9] CCn1c(COc2ccc(Cl)cc2)nnc1SCC(=O)Nc1ccc2c(c1)OCO2
[10] CCn1c2ccccc2c2cc(NC(=O)COC(=O)C3CCC(=O)N3)ccc21 (centres undefined)

| Compound | 6 | 7 | 8 | 9 | 10 |
| --- | --- | --- | --- | --- | --- |
| LYPLA1 inh | 4 | 3 | -5 | 3 | 2 |
| PAFAH1B3 FP inh | -3 | 9 | -2 | 5 | 12 |
| PAD4 inh | 2 | -3 | 3 | 0 | 1 |
| LYPLA2 inh | 3 | 12 | 3 | 3 | 9 |

Some of the entries above, reformatted:
cpd	SMILES	LYPLA1 inh	PAFAH1B3 FP inh	PAD4 inh	LYPLA2 inh
1	O=c1cc(O)nc(SCc2ccccc2Cl)[nH]1	3	6	-3	9
2	CCOC(=O)CNC(=O)CSc1nnc(COc2ccc(Cl)cc2)n1CC	-1	-4	3	-3
3	O=C(CCNC(=O)C1CCN(S(=O)(=O)c2ccc(F)cc2)CC1)NCc1ccccc1Cl	1	8	7	15
4	CC1(C)Cc2ccccc2C(/C(=N/O)C(N)=O)=N1	-1	15	0	2

Continued.
[11] COc1cc2c(cc1OC)CN(C(=O)C(C)(C)C)CC2
[12] N#CC(c1ccccn1)(c1ncc(C(F)(F)F)cc1Cl)N1CCOCC1 (centres undefined)
[13] Cc1c(/C=N/NC(=O)CNc2ccccc2)c2ccccn2c1C(=O)c1ccc(Cl)cc1
[14] COc1ccc(OC)c(-n2c(-c3cc(-c4ccc(F)cc4)n[nH]3)n[nH]c2=S)c1
[15] COc1ccc(C2/C(=C(/O)c3ccc(F)cc3)C(=O)C(=O)N2CCCN2CCOCC2)cc1OC (centres undefined)

| Compound | 11 | 12 | 13 | 14 | 15 |
| --- | --- | --- | --- | --- | --- |
| LYPLA1 inh | -1 | -1 | -11 | 3 | 2 |
| PAFAH1B3 FP inh | 3 | -2 | 7 | 6 | 4 |
| PAD4 inh | 5 | 4 | 1 | 7 | -4 |
| LYPLA2 inh | -2 | 5 | -3 | 3 | 3 |

Entries shown so far that have four or more nitrogen atoms, in the order listed:
[2] CCOC(=O)CNC(=O)CSc1nnc(COc2ccc(Cl)cc2)n1CC
[9] CCn1c(COc2ccc(Cl)cc2)nnc1SCC(=O)Nc1ccc2c(c1)OCO2
[12] N#CC(c1ccccn1)(c1ncc(C(F)(F)F)cc1Cl)N1CCOCC1 (centres undefined)
[13] Cc1c(/C=N/NC(=O)CNc2ccccc2)c2ccccn2c1C(=O)c1ccc(Cl)cc1
[14] COc1ccc(OC)c(-n2c(-c3cc(-c4ccc(F)cc4)n[nH]3)n[nH]c2=S)c1

| Compound | 2 | 9 | 12 | 13 | 14 |
| --- | --- | --- | --- | --- | --- |
| LYPLA1 inh | -1 | 3 | -1 | -11 | 3 |
| PAFAH1B3 FP inh | -4 | 5 | -2 | 7 | 6 |
| PAD4 inh | 3 | 0 | 4 | 1 | 7 |
| LYPLA2 inh | -3 | 3 | 5 | -3 | 3 |

Other structures follow.
[16] O=C(NCc1ccc(F)cc1)C1CCN(S(=O)(=O)c2ccc(Cl)cc2)CC1
[17] N#CC(c1ccncc1)(c1ncc(C(F)(F)F)cc1Cl)N1CCOCC1 (centres undefined)
[18] CCN(CC)CC(=O)N1c2ccccc2Oc2c(c(=O)n(C)c(=O)n2C)C1c1cccc([N+](=O)[O-])c1 (centres undefined)
[19] COc1ccccc1-n1c(-c2ccc(NS(C)(=O)=O)cc2)n[nH]c1=S
[20] NS(=O)(=O)c1cccc(NS(=O)(=O)c2cccc(C(F)(F)F)c2)c1

| Compound | 16 | 17 | 18 | 19 | 20 |
| --- | --- | --- | --- | --- | --- |
| LYPLA1 inh | 0 | 2 | -1 | 3 | 2 |
| PAFAH1B3 FP inh | 6 | -1 | 2 | -2 | -2 |
| PAD4 inh | 0 | -3 | 0 | 6 | -2 |
| LYPLA2 inh | -3 | 15 | 0 | 4 | 3 |

One compound at a time, as listed above. Order of screens: LYPLA1 inh | PAFAH1B3 FP inh | PAD4 inh | LYPLA2 inh
NS(=O)(=O)c1cccc(NS(=O)(=O)c2cccc(C(F)(F)F)c2)c1 in the list: 2 | -2 | -2 | 3
O=C(NCc1ccc(F)cc1)C1CCN(S(=O)(=O)c2ccc(Cl)cc2)CC1 in the list: 0 | 6 | 0 | -3
COc1ccccc1-n1c(-c2ccc(NS(C)(=O)=O)cc2)n[nH]c1=S in the list: 3 | -2 | 6 | 4

New compounds follow.
[21] CC(NS(=O)(=O)c1ccc(Cl)cc1)C(=O)OCC(=O)c1ccc[nH]1 (centres undefined)
[22] C[C@H](NS(=O)(=O)c1ccc(Cl)cc1)C(=O)OCC(=O)c1ccc[nH]1
[23] O=C(Nc1ccccc1OC(F)F)C1CC(=O)N(Cc2ccccc2)C1 (centres undefined)
[24] CN1CCN(c2oc(/C=C/c3ccccc3)nc2C#N)CC1
[25] CCOc1ccc(CCNC(=O)C2CC(=O)N(CCc3ccccc3)C2)cc1OCC (centres undefined)

| Compound | 21 | 22 | 23 | 24 | 25 |
| --- | --- | --- | --- | --- | --- |
| LYPLA1 inh | -2 | 3 | 0 | 1 | -1 |
| PAFAH1B3 FP inh | 6 | 1 | 2 | 8 | 11 |
| PAD4 inh | 2 | -7 | -1 | 1 | 2 |
| LYPLA2 inh | 2 | 8 | 4 | 3 | 1 |

[26] COc1cc2c(cc1OC)CN(C(=O)c1sccc1C)CC2
[27] CC(=O)N/C(=C\c1ccccc1)C(=O)OC(C)C(=O)NCc1ccccc1 (centres undefined)
[28] COc1ccc2cc(OCC(=O)NNC(=O)Nc3ccc(F)cc3)ccc2c1
[29] COc1cccc2cc(C(=O)CS(=O)(=O)c3ccc(C(C)(C)C)cc3)c(=O)oc12
[30] COc1cc2c(cc1OC)CN(C(=O)CNS(=O)(=O)c1ccc(C)c(C)c1)CC2

| Compound | 26 | 27 | 28 | 29 | 30 |
| --- | --- | --- | --- | --- | --- |
| LYPLA1 inh | 1 | -3 | 1 | 0 | -1 |
| PAFAH1B3 FP inh | 15 | 1 | 1 | 4 | 7 |
| PAD4 inh | -5 | 3 | 0 | -8 | -3 |
| LYPLA2 inh | 4 | 6 | -8 | -1 | -6 |

[31] COc1ccccc1NC(=O)C(C)OC(=O)/C(=C/c1ccccc1)NC(C)=O (centres undefined)
[32] COCCn1nnnc1C(c1cc2cc(C)ccc2[nH]c1=O)N1CCc2ccccc21 (centres undefined)
[33] COc1cc2c(cc1OC)CN(C(=O)c1ccco1)CC2
[34] C=CCSc1n[nH]c(-c2cccs2)n1
[35] O=C(NC1CCCCC1)C1CC(=O)N(CCc2ccccc2)C1 (centres undefined)

| Compound | 31 | 32 | 33 | 34 | 35 |
| --- | --- | --- | --- | --- | --- |
| LYPLA1 inh | -1 | -1 | 3 | 1 | 4 |
| PAFAH1B3 FP inh | -1 | 11 | 1 | -14 | 4 |
| PAD4 inh | 3 | 0 | -2 | -2 | -4 |
| LYPLA2 inh | 6 | 2 | 10 | -1 | 1 |

More results follow.
Values in the order – LYPLA1 inh | PAFAH1B3 FP inh | PAD4 inh | LYPLA2 inh
(36) Cc1cccc(C)c1Nc1nnc(SCC(=O)Nc2sccc2C#N)s1
→ -7 | -10 | -10 | 3
(37) Cc1ncccc1C(=O)N1CCCC(CNC(=O)C2(c3ccc(Cl)cc3)CC2)C1 (centres undefined)
→ 0 | 3 | 2 | -8
(38) CN(c1ccccc1)S(=O)(=O)c1cccc(C(=O)OCC(=O)Nc2ccc3[nH]c(=O)[nH]c3c2)c1
→ -4 | 12 | -8 | -5
(39) O=C(CCNC(=O)C1CCN(S(=O)(=O)c2ccc(F)cc2)CC1)NCc1cccc(Cl)c1
→ 5 | 2 | 7 | 9
(40) CC(C)(C)c1nnc(NC(=O)C2CC(=O)N(CCc3ccc(F)cc3)C2)s1 (centres undefined)
→ 1 | -1 | -2 | 0
(41) COC(=O)C1=NN(c2ccc(Cl)cc2)C2C(=O)N(c3ccccc3OC)C(=O)C12 (centres undefined)
→ -1 | 2 | -2 | 1
(42) C=CCSc1nnc2c(n1)[nH]c1c(C)cccc12
→ -5 | 4 | -4 | -3
(43) Cc1c(/C=N/NC(=O)c2ccc(O)cc2)c2ccccn2c1C(=O)c1ccc(F)cc1
→ 0 | -2 | -4 | 6
(44) CCn1c2ccccc2c2cc(NC(=O)COC(=O)c3cc(S(N)(=O)=O)c(Cl)cc3Cl)ccc21
→ -7 | -4 | -5 | -7
(45) CCn1c(COc2ccc(C)cc2)nnc1SCC(=O)Nc1ccc(S(N)(=O)=O)cc1
→ -1 | 3 | 3 | -1
(46) Cc1ccc(C(=O)CSc2nc(O)cc(=O)[nH]2)cc1C
→ -3 | 23 | -3 | -4
(47) Cc1c(C=O)c2ccccn2c1C(=O)c1ccc(Cl)c([N+](=O)[O-])c1
→ -1 | 14 | 2 | 9
(48) Cc1cc(N/N=C\c2ccc(Br)cc2)nc(-n2nc(C)cc2C)n1
→ -2 | -6 | 0 | 0
(49) Cc1nn(-c2ccccc2)c2[nH]c(=O)c(CNCC3CCCO3)cc12 (centres undefined)
→ 3 | 4 | -4 | -4
(50) COC(=O)C1=NN(c2ccc(OC)cc2)C2C(=O)N(c3ccccc3OC)C(=O)C12 (centres undefined)
→ 5 | / | -2 | 0
(51) COc1cc2c(cc1OC)CN(C(=O)c1ccccc1C(=O)O)CC2
→ 2 | 8 | 1 | 3
(52) Cc1cc(OCc2nc(-c3ccc(NC(=O)c4cccnc4)cc3)no2)ccc1Cl
→ -6 | -5 | -6 | 10
(53) COc1cc2c(cc1OC)-c1cc(N3CCCCCC3)nc(=O)n1CC2
→ 2 | 6 | 2 | 1
(54) CCC(=O)Nc1ccc(S(=O)(=O)N2CCCCC2)cc1OC
→ -2 | 4 | -3 | 3
(55) CCOC(=O)C1CCCN(C(=S)NC(=O)/C=C/c2ccc(F)cc2)C1 (centres undefined)
→ 4 | 2 | -4 | 4
(56) COc1ccc(-c2nnc(SCCC(=O)O)n2C)cc1OC
→ -5 | -3 | 0 | -9
(57) C/C(=N\NC(=O)c1ccc(NS(=O)(=O)c2cccs2)cc1)c1ccc(Cl)cc1
→ -1 | 1 | 3 | 14
(58) c1ccc(-c2cnc(-c3cccnc3)o2)cc1
→ 1 | -2 | -4 | 6
(59) CCOc1ccc(OCCC(=O)N2CCc3cc(OC)c(OC)cc3C2)cc1
→ 0 | 9 | 7 | -4
(60) COc1ccc(S(=O)(=O)N2CCOCC2)cc1NC(=O)Cc1ccc(Cl)c(Cl)c1
→ -6 | 3 | 0 | -4
(61) COc1ccc(OC)c(/C=N/NC(=O)c2cc3c(OC)cc(OC)cc3[nH]2)c1
→ -19 | 11 | 2 | -23
(62) CC(=O)Nc1ccc(S(=O)(=O)Nc2nc3ccccc3nc2Nc2cccc(S(N)(=O)=O)c2)cc1
→ -3 | 16 | -1 | -3
(63) CCc1ccc(NCc2cc3c(C)nn(-c4ccccc4)c3[nH]c2=O)cc1
→ 4 | 3 | -6 | -3
(64) C/C(=N\NC(=O)c1ccc(NS(=O)(=O)c2cccs2)cc1)c1cccs1
→ 3 | 4 | 4 | 8
(65) COc1cc2c(cc1OC)CN(C(=O)c1cccs1)CC2
→ 1 | 5 | 0 | 3
(66) C/C(=N\NC(=O)c1ccc(NS(=O)(=O)c2cccs2)cc1)c1ccncc1
→ 1 | 4 | -7 | 0

The list is partial, so the mix of outcomes need not match the whole.
